Six1-Eya2 blk = blocks human Six1 binding to Eya2. Q15475+O00167. AlphaScreen GST-Six1/His-Eya2 binding, biochemical; stronger effect = lower value; control for the full effect not named in the record. activity change, % (test concentration not listed). hit rate 0.56% among 360,000. AID 651725; in the data active = activity change below about -65%; inconclusive = about -30% to -65%; inactive = above about -30%; note: % is set by controls: 0 for no effect and ±100 for the full control effect; compound concentration not given in the record
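Homogeneous AlphaScreen proximity assay pairing GST-Six1 with His-tagged Eya2 (added as 5X mix: 250 nM and 500 nM) in 50 mM Tris pH 8.0, 300 mM NaCl, 1 mM TCEP. Glutathione donor and nickel acceptor beads; 1 h, 37 °C, dark.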
TRPV1 potentiator = human TRPV1 potentiation; TRPV1-expressing cells, Fluo-8 calcium influx, capsaicin EC20 potentiation; host cell line not named in the record; control for the full effect not named in the record; potentiation, % at 8.33 µM; hit rate 0.02% among 320,000; AID 540277; active means potentiation above 80%; inconclusive means 30% to 80%; inactive means below 30%; note: 0% is about no effect
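Fluo-8 calcium influx in TRPV1-expressing cells, kinetic read (ex 480/em 520 nm). Compound added and read 3 min for agonist activity, followed by capsaicin at EC20 final and 2 min further read for enhancement.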
D2 PAM = human D2 receptor positive allosteric modulation | DiscoveRx D2 beta-arrestin cells, luminescence, 90 min; 100% = 57 uM dopamine signal | potentiation, % (no concentration beside the values) | AID 624464 | hit rate 0.23% among 360,000 | P14416; active = potentiation of 50% or more; inconclusive = 30% to 50%; inactive = 30% or less;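 note: compound concentration not given in the record; tested on top of an EC20 dose of dopamine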
Target sequence (P14416 whole entry, looked up): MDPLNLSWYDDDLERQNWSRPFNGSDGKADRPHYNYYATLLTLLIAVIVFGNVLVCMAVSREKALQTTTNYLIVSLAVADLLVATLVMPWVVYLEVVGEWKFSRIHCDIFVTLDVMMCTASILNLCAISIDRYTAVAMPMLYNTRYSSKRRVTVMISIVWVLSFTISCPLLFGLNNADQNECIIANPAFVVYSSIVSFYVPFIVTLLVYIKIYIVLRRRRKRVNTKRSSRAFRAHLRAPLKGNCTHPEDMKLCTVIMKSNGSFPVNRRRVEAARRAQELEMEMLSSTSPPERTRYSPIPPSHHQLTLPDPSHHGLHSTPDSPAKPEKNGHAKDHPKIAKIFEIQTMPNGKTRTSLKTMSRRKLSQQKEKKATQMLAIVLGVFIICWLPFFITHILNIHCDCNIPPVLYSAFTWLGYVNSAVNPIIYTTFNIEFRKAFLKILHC
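PathHunter beta-arrestin assay in DiscoveRx D2 cells. Compounds were added with an EC20 of dopamine (50 nM final) for 90 min at 37 deg C. Luminescence was read 1 h after detection reagent, with 57 uM dopamine as the EC100 control.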
TRPML1 ag = agonists of human TRPML1 channel; TRPML1-expressing cells, Ca2+ dye fluorescence, FDSS; host cell line not named in the record; reference of the full effect not given here; activation, % (no concentration beside the values); hit rate 0.12% among 410,000; Q9GZU1; in the data active = activation above about 50%; inconclusive = about 30% to 50%; inactive = below about 30%; note: 0% is about no effect; the text of the record puts the active cut at 80%
Target sequence (Q9GZU1 whole entry, looked up): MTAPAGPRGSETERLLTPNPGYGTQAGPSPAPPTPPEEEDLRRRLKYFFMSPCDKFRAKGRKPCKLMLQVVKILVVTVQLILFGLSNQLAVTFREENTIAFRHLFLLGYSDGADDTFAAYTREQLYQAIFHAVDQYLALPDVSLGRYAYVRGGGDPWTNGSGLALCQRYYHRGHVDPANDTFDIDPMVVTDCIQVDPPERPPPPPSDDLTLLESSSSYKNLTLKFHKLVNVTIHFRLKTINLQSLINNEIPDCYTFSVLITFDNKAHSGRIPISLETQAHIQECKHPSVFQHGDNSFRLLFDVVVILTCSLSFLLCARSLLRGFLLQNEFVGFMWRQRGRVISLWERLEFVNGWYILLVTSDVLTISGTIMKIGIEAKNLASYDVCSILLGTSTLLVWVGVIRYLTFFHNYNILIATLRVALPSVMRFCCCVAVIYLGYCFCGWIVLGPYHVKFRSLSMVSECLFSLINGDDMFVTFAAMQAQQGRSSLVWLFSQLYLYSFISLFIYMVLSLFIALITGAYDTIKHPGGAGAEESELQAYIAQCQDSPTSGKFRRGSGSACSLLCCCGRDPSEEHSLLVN
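Tetracycline-induced TRPML1-DL cells are seeded and incubated overnight before loading with a no-wash Ca2+ dye and quencher. Agonist activity is taken from the 110 s fluorescence read following compound pin-transfer on an FDSS, before EC80 54-4 challenge.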
TRPML1 blocker = blocks the human TRPML1 channel | AID 624415 | TRPML1-inducible cells, Ca2+ dye fluorescence, FDSS; stronger effect = lower value; inhibition of EC80 agonist-evoked calcium signal | activity change, negative = inhibition, % (concentration not given with the values) | hit rate 0.02% among 390,000; in the data active means activity change below about -50%; inconclusive means about -30% to -50%; inactive means above about -30%;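 note: stimulus is agonist 54-4 at its EC80 concentration; % is set by controls: 0 for no effect and ±100 for the full control effect; compound concentration not given in the record; the text of the record puts the active cut at -80%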
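Calcium fluorescence in TRPML1-DL cells induced overnight with Tet: a 110 s read after compound pin addition, then a 110 s antagonist read after challenge with 54-4 at 4 uM final (EC80).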
CtBP-E1A blk = CtBP/E1A binding inhibition; AlphaScreen GST-E1A/His-CtBP binding, 1536-well; stronger effect = lower value; control for the full effect not named in the record; activity change, % (test concentration not listed); hit rate 0.49% among 340,000; in the data active means activity change below about -65%; inconclusive means about -30% to -65%; inactive means above about -30%; note: % is set by controls: 0 for no effect and ±100 for the full control effect; compound concentration not given in the record
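Steps: dispense buffer (Tris pH 8.0, NaCl 300 mM, TCEP 1 mM, BSA, Tween 20); add 5X protein mix (GST-E1A, His-CtBP, 125 nM each); pin 23 nL compound; 2 h at 37 °C, dark; add 5X beads (50 ug/mL); 1 h; read.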
* = called active by the depositor; ? = inconclusive; . = not tested or not shown. No enrichment for hits; any-hit rate near 0.95%.

A first look:
SMILES	Six1-Eya2 blk	TRPV1 potentiator	D2 PAM	TRPML1 ag	TRPML1 blocker	CtBP-E1A blk
Nc1cc2c(cc1Cl)-c1ccc([N+](=O)[O-])cc1C2=NO	-9	.	-11	0.5	-10	9
O=C1CN(C(=O)/C=C/c2ccccc2F)c2ccccc2N1	-2	-2	-4	0.8	22	-5
CCCn1c(N)c(C(c2ccc(OC)cc2)N2CCN(c3ccccc3)CC2)c(=O)[nH]c1=O (stereo not given)	-11	2	-9	-0.3	-12	-3
O=C(NC(Cc1c[nH]c2ccccc12)C(=O)O)c1ccc(F)cc1 (stereo not given)	-3	9	-4	-0.3	-11	4
COc1ccc(C(=O)Nc2ccnn2C2CCN(Cc3cn(C)nc3C)CC2)cc1	-7	-3	-6	0.0	-21	22
Nc1ncc(-c2cc3ccccc3oc2=O)s1	-1	13	-2	-0.6	-8	0

All compounds of this part, from the first entry:
SMILES	Six1-Eya2 blk	TRPV1 potentiator	D2 PAM	TRPML1 ag	TRPML1 blocker	CtBP-E1A blk
Nc1cc2c(cc1Cl)-c1ccc([N+](=O)[O-])cc1C2=NO	-9	.	-11	0.5	-10	9
O=C1CN(C(=O)/C=C/c2ccccc2F)c2ccccc2N1	-2	-2	-4	0.8	22	-5
CCCn1c(N)c(C(c2ccc(OC)cc2)N2CCN(c3ccccc3)CC2)c(=O)[nH]c1=O (stereo not given)	-11	2	-9	-0.3	-12	-3
O=C(NC(Cc1c[nH]c2ccccc12)C(=O)O)c1ccc(F)cc1 (stereo not given)	-3	9	-4	-0.3	-11	4
COc1ccc(C(=O)Nc2ccnn2C2CCN(Cc3cn(C)nc3C)CC2)cc1	-7	-3	-6	0.0	-21	22
Nc1ncc(-c2cc3ccccc3oc2=O)s1	-1	13	-2	-0.6	-8	0
CCOc1ccc(S(=O)(=O)N2CCN(C(=O)c3cc(C4CC4)nn3-c3ccccc3)CC2)cc1	-13	-9	-24	0.1	-20	1
O=S(=O)(Cc1cccc(F)c1)c1c[nH]c2ccccc12	4	.	-14	0.0	4	-2
CCCCCCCCCCCCCCCC[n+]1cccc2ccccc21	-29	-20	-35	1.5	35	-8
Cc1cccc(NC(=O)CSc2nnc(-c3ccccc3C)o2)c1	-1	0	-7	0.2	-3	1
Cc1cc(C(=O)NCc2ccc3c(c2)OCO3)c(C)o1	-6	?	3	1.2	2	-1
Cc1ccc(NS(=O)(=O)c2cn(C)c(=O)n(C)c2=O)cc1C	9	0	-5	0.1	-4	2
CCOc1ccc(S(=O)(=O)c2ccc(C)cc2)c2c1no[n+]2[O-]	0	.	-4	-0.8	18	1
O=C(Nc1cccc2cccnc12)c1csc([C@@H]2O[C@H](CO)[C@H](O)[C@H](O)[C@H]2O)n1	-13	.	-24	-0.6	.	-16
O=C(CC1C(=O)NCCN1C(=O)c1ccc(F)cc1)OCc1ccccc1 (stereo not given)	-5	4	-4	-0.6	-1	5
COc1cc(C(=O)NCC(=O)Nc2c(C)cccc2C)ccc1OCc1ccccc1	-3	-9	-8	0.3	1	1
N#Cc1c(N)n(C2CCCCC2)c2nc3ccccc3nc12	9	-8	2	0.8	81	-4
COc1ccc(C(CNC(=O)c2cc3ccccc3o2)N2CCCC2)cc1 (stereo not given)	-3	-11	-5	0.0	-8	-5
COCCNc1oc(/C=C/c2ccccc2OC)nc1S(=O)(=O)c1ccccc1	21	-4	-7	1.8	7	19
O=C(O)CCCC(=O)Nc1ccc(C(=O)N2CCCCC2)cc1	1	0	-7	0.7	0	-7
COc1cccc(CNC(=O)c2ccc3c(c2)N(C)CCS3)c1OC	3	-11	-2	0.5	16	4
Cc1ccc(S(=O)(=O)CCSc2cccc(C(=O)Nc3ccccc3C(=O)O)c2)cc1	-16	9	7	2.4	30	-4
CC1Sc2ccc(S(=O)(=O)CCC(=O)NC3CCCC(C)C3C)cc2NC1=O (stereo not given)	5	-14	-6	0.3	-6	.
CC1(C)Cc2nc(N)c(=O)sc2C1	5	11	5	0.5	-1	1
Cc1ccccc1NC(=O)C1CCCN(S(=O)(=O)c2cccc3cccnc23)C1 (stereo not given)	-5	2	2	1.1	-6	4

The list continues:
SMILES	Six1-Eya2 blk	TRPV1 potentiator	D2 PAM	TRPML1 ag	TRPML1 blocker	CtBP-E1A blk
COc1ccccc1CN1CCN(Cc2nc(-c3cccs3)no2)CC1	-7	5	-18	0.8	-4	.
COc1ccc(OC)c(S(=O)(=O)N2CCC(C(=O)NCc3ccc4c(c3)OCO4)CC2)c1	-3	-8	-2	-0.5	-4	-3
FC(F)Oc1ccc(C2N=C(c3ccccc3)NO2)cc1 (stereo not given)	3	12	-9	1.9	5	9
O=C(Cc1n[nH]c(=O)[nH]c1=O)N/N=C/c1ccccc1	6	-10	-5	0.7	1	7
O=C(CCNC(=O)c1ccccc1Cl)NN=Cc1ccco1	-5	.	-25	0.6	8	-1
C[C@H](CO)N1C[C@H](C)[C@@H](CN(C)C(=O)Nc2ccccc2)Oc2ccc(NS(=O)(=O)c3ccc(F)cc3)cc2C1=O	2	.	2	-0.8	-19	8
CC(=O)Nc1ccc(N2C(=O)c3ccc(C(=O)Nc4nnc(SCc5ccc(F)cc5)s4)cc3C2=O)cc1	-1	7	-6	-0.2	-2	.
Cc1ccc(NC(=O)CO/N=C(\N)c2ccccc2)cc1C	0	.	-8	-0.8	27	3
O=C(NCc1ccc2c(c1)OCO2)C1CCN(Cc2cnn(-c3ccccc3)c2-n2cccc2)CC1	11	10	-49	0.6	-1	17
COc1ccc(N2CCN(C(=O)CCNC(=O)c3ccc(C(C)(C)C)cc3)CC2)cc1	-7	-9	-5	1.1	-19	-6
CN1CCN(c2ccc(NC(=O)COc3cccc4ccccc34)cc2)CC1	-4	3	-4	-0.2	-14	-19
COc1ccc(CNc2ccc(C(=O)O)cc2)cc1	23	10	0	-0.8	-7	1
O=C(Nc1ccc2c(c1)CCC2)C1CCCN(c2ncccn2)C1 (stereo not given)	2	-20	0	1.3	19	4
O=C(NC1CCCCC1)c1cc(-c2ccccc2O)on1	5	3	2	1.1	-1	1
CCOC(=O)C1(CCOc2ccccc2)CCN(C(=O)c2ccc(-n3cccn3)cc2)CC1	-3	8	-8	2.0	3	.
CCOC(=O)C[n+]1c(C)csc1C	-1	3	-4	0.3	1	6
Cc1cc(NC(=O)CSCC(=O)Nc2ccc(Cl)c(C(F)(F)F)c2)no1	9	-4	0	2.2	18	-25
CCOC(=O)c1nnc2cc(C)nn2c1C	-2	11	-1	0.2	8	.
O=C(CCC1CCCC1)NCCCN1CCOCC1	0	5	-16	0.1	-6	3
O=C(Nc1ccccc1Oc1cccnc1)C1CCCN(Cc2ccc(F)cc2)C1 (stereo not given)	0	7	-12	-0.4	12	2
Cc1nc([N+](=O)[O-])c(Br)n1CC(=O)c1ccc2ccccc2c1	20	-9	-4	-0.2	9	1
COc1ccc(C(=O)Nc2ccccc2SCc2cc(=O)n3nc(C)sc3n2)cc1OC	0	-2	-6	-0.6	5	1
Cc1cccc(NC(NC(=O)c2ccccc2[N+](=O)[O-])C(Cl)(Cl)Cl)c1 (stereo not given)	4	7	6	0.2	2	2
COc1ccc(N(CC(=O)Nc2cccc(N(C)S(C)(=O)=O)c2)S(=O)(=O)c2ccc(F)cc2)cc1	9	-3	-20	.	.	0
CC1(c2cccc(Br)c2)NC(=O)N(CC(=O)Nc2ccc(N3CCCCC3)cc2)C1=O (stereo not given)	?	.	-10	-0.3	-13	-6

Three compounds from above, showing only TRPML1 ag and CtBP-E1A blk:
molecule,TRPML1 ag,CtBP-E1A blk
Cc1ccc(NS(=O)(=O)c2cn(C)c(=O)n(C)c2=O)cc1C,0.1,2
CCOc1ccc(S(=O)(=O)c2ccc(C)cc2)c2c1no[n+]2[O-],-0.8,1
O=C(Nc1cccc2cccnc12)c1csc([C@@H]2O[C@H](CO)[C@H](O)[C@H](O)[C@H]2O)n1,-0.6,-16

The list goes on.
SMILES	Six1-Eya2 blk	TRPV1 potentiator	D2 PAM	TRPML1 ag	TRPML1 blocker	CtBP-E1A blk
COc1ccc(C2(CNC(=O)c3ccccc3)CCOCC2)cc1	5	-8	-2	0.9	18	4
O=C1CC(c2ccccc2Oc2cccc(Cl)c2)C(n2cncn2)C(=O)C1C1NCCc2ccccc21 (stereo not given)	2	0	-7	0.8	2	-4
CCCCN1C(=O)C(=O)N(CC(=O)c2ccc3c(c2)OCO3)C1=O	0	-14	9	0.0	14	-16
Cc1cccc(C(=O)NCCCN(C)CCCNC(=O)c2cccc(C)c2)c1	0	-8	-58	-0.6	-5	.
CCOC(=O)c1cnc(N2CCN(c3ccccc3)CC2)[nH]c1=O	-6	27	0	0.9	17	7
Cc1cc(OCCN2CCOCC2)ccc1C(C)C	3	-28	-18	-0.3	12	7
CCOc1ccccc1N1CC(C(=O)N2CCc3ccccc32)CC1=O (stereo not given)	-2	-14	-9	0.4	5	4
CC(=O)Nc1ccc2cnn(C(C)=O)c2c1	-1	.	-6	-0.6	1	5
Cc1ccsc1C(=O)N1CCC1(C)C(=O)NS(=O)(=O)c1ccc(Br)cc1 (stereo not given)	2	.	-1	-0.3	.	6
CC(=O)Oc1ccc(/C=c2\sc3ncnn3c2=O)cc1	-7	3	-21	-0.3	5	2
CCOc1ccc(S(=O)(=O)NCCC(=O)NCC2(N3CCCCC3)CCCCC2)cc1	32	16	-13	0.5	-7	0
O=C(Oc1ccc(/C=N/n2cnnc2)cc1)c1cccc([N+](=O)[O-])c1	?	0	-6	0.0	11	11
COC(=O)c1cc(N=Nc2sc(N)nc2C)cc(C(=O)OC)c1	-5	-3	7	3.4	1	.
S=c1[nH]nc(-c2ccc(Cl)cc2)n1/N=C/c1cccs1	-10	4	-12	0.1	11	-2
CCn1c(SCC(=O)Nc2cccc(OC)c2)nc2ccccc2c1=O	-14	1	-14	-0.2	9	-16
CCc1cc(-c2nnn(-c3cc(C(C)C)ccc3C)c2CC)ccc1-c1cn(CCc2c[nH]c3ccccc23)nn1	-2	.	0	-0.9	-13	-1
CCN1C(=O)[C@@H]2Cc3c([nH]c4ccccc34)C(c3cc(OC)c(OC)c(OC)c3)N2C1=S (stereo not given in full)	1	5	4	2.5	10	.
Cc1ccc(OCC(=O)NCCCNC(=O)c2ccco2)cc1C	3	-2	4	1.4	-4	2
COCCN(C(=O)COC(=O)CCn1c(C)csc1=O)c1c(N)n(Cc2ccccc2)c(=O)[nH]c1=O	9	19	-9	0.2	-8	-17
CCCC(=O)c1ccc2c(c1)OCCO2	3	-10	-3	0.0	65	0
COc1ccc(CCN(C)C(=O)c2oc3ccccc3c2C)cc1OC	-3	-2	-11	2.1	40	6
CC1CCCC(C)N1C(=O)COC(=O)c1ccc(Br)c(S(=O)(=O)N2CCOCC2)c1 (stereo not given)	4	.	0	-0.4	4	6
CCCCc1nc(S(=O)(=O)c2ccc(Cl)cc2)c(N2CCOCC2)o1	2	-34	-11	-1.2	12	-2
O=C(O)CSc1c2c(nc3cc(C(=O)NCCN4CCOCC4)ccc13)CCC2	0	-2	-2	0.7	1	-15
COc1cc(C(=O)Nc2cccc3ncccc23)cc(OC)c1OC	-2	-28	14	0.9	-10	6
CCOc1cc(C=O)ccc1OCCSc1ccc(Cl)cc1	34	-11	-9	4.1	45	35
Cc1c(S(=O)(=O)N2CCN(c3cccc(C(F)(F)F)c3)CC2)c(=O)n(C)c(=O)n1C	-2	18	-1	-0.6	0	2
